Screening results as filed in PubChem BioAssay.
Bead autofluor: counter-screen for toxin protease inhibitors: compound fluorescence; fluorescence intensity (no concentration beside the values); 3.1% of 360,000 active; compound autofluorescence counterscreen, microsphere flow cytometry; active compounds read high;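 active = at least 3 SD above the mean of all compounds, about 16000 in these data; inconclusive = too few beads counted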;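 also: 100 nL of 1 mM stock went into each well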
BJeLR lethal: kills HRASV12-expressing BJeLR cells | inhibition, % (no concentration beside the values) | BJeLR (HRASV12) viability, CellTiter-Glo ATP luminescence, 48 h; reference of the scale not given here | 0.17% of 300,000 active;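 active = replicate mean above 50%; inconclusive = above 50% but judged a plate artefact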;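 also: 50 nL library stock added to about 25 µL; numbers are from one replicate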
RN4220 kill: S. aureus RN4220 growth inhibition; OD600, 16 h; inhibition, % (test concentration not listed); 0.33% of 330,000 active; AID 1259311;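 active = z-score of -3 or lower and OD600 up to 0.18 on both plates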;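 also: plate controls were untreated cells for no effect and reference antibiotic for full effect; stock transfer was 100 nL into about 80 µL; one replicate is shown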
Mtb hypoxia inh: reduces hypoxia-regulated biosensor signal in M. tuberculosis. 0.1% of 300,000 active. M. tuberculosis hypoxia-regulated fluorescent reporter, fluorescence. AID 1159583. fluorescence inhibition, % (concentration not given with the values);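 active = 35 to 45% if threefold the growth effect, above 45% if 1.5-fold the growth effect; inactive = the rest, general growth blockers included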;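 also: wells of about 50 µL received 100 nL stock; 0% = vehicle wells and 100% = reference inhibitor wells; whole bacteria with a GFP reporter of the hypoxia response; strong numbers were not always called active; many hits fall short of the cut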
PrP UTR inh: inhibition of PrP 5' UTR reporter expression. AID 488862. inhibition, % (test concentration not listed). cell-based PrP 5' UTR mRNA reporter, plate reader. 0.35% of 340,000 active;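 active = every replicate at 50% or more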;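 also: 0 = median of the neutral control wells; tested in H4 reporter cells; numbers are from one replicate; inactives centre near -14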
ugtP null kill: compounds lethal to S. aureus RN4220 ugtP deletion mutant. OD600 growth, 16 h; some inactives read as strong as hits. growth inhibition, % (concentration not given with the values). 0.54% of 330,000 active;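 active = z-score under -3 and OD600 up to 0.15 on both plates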;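 also: plate controls were untreated wells for no effect and antibiotic for full effect; wells of about 80 µL received 100 nL stock; the first replicate is given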
Mtb hypoxia inh growth: also measured in Mtb hypoxia inh; calls as there; growth inhibition, %; measured here: M. tuberculosis growth (absorbance);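 0% = vehicle and 100% = reference antibiotic; read after six days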
An asterisk follows results filed as active; ? = inconclusive; nt = no result given. Rows are unselected; about 4% have a hit in one of these screens.

Results follow in this order: ugtP null kill | Mtb hypoxia inh growth | Bead autofluor | PrP UTR inh | BJeLR lethal | RN4220 kill | Mtb hypoxia inh
1) Cc1ccc(-c2nn(-c3ccccc3)cc2C(=O)N2CCN(c3ccccn3)CC2)cc1
  -2 | 9 | 3658 | -10 | -2 | 1.8 | 16
2) CCOC(=O)N1CCN(C(=O)/C(=C/c2cccs2)NC(=O)c2ccc(OC)c(OC)c2)CC1
  1 | 0 | 3038 | -3 | -3 | 0.3 | 6
3) CC(=O)N1c2ccc(S(=O)(=O)NCCC(=O)NCCc3ccc(C)cc3)cc2CC1C (centres undefined)
  7 | -7 | 4322 | -22 | 10 | 4.5 | -3
4) COc1ccc(CN(Cc2ccccn2)S(=O)(=O)c2ccc(-n3cnnn3)c(OC)c2)cc1
  6 | 1 | 10799 | -12 | -4 | 1.5 | 13
5) CCN1C(=O)C(=C2C=C(C)N(Cc3ccco3)C(C)=C2)C(=O)N(CC)C1=S
  9 | 2 | 2086 | -1 | 5 | 2.6 | 7
6) CCSc1nc2c(c(=O)n(C)c(=O)n2C)n1Cc1ccc(Cl)cc1
  11 | nt | 2359 | -14 | 10 | -4.3 | nt
7) COc1ccc(C(=O)NCC(c2ccco2)N2CCc3ccccc32)c(OC)c1 (centres undefined)
  4 | 9 | ? | -17 | 6 | 2.5 | 10
8) Cc1cc(NC(=O)c2ccc(COc3ccccc3Cl)o2)no1
  5 | 2 | 3729 | 4 | -19 | -4.7 | 16
9) CNc1nc(C)nc(-c2ccccc2O)n1
  10 | 9 | 5201 | -6 | 1 | 1.3 | 14
10) CCOC(=O)C1=C(Cn2cnc3ccccc32)NC(=O)NC1c1cc(C)ccc1C (centres undefined)
  4 | 4 | 10917 | -25 | 0 | 4.7 | 6
11) CCc1[nH]c(=O)c(C#N)c2c1CCCC2
  2 | -6 | 4360 | -30 | 1 | -2.7 | -4
12) COc1cc(NC(=O)c2ccc(Cl)cc2)c(OC)cc1NC(=O)CN1CCOCC1
  -2 | 10 | 3278 | -46 | 10 | -6.5 | 15
13) Cc1oc2cc([N+](=O)[O-])c(O)c([N+](=O)[O-])c2c1C(=O)c1ccc(Br)cc1
  8 | -2 | 2241 | -19 | nt | 22 | 23
14) CCOC(=O)c1ccc(NC(=O)Cc2cccs2)cc1
  7 | 1 | 3740 | -54 | 7 | -0.8 | -8
15) COc1ccc(OC)c(-c2csc(NC(=O)CSc3ccc(Br)cc3)n2)c1
  -10 | 6 | 1953 | -24 | -1 | 1.8 | 2
16) C=CC[n+]1c(-c2ccc(OC)cc2)csc1NNC(=O)Nc1ccccc1
  -7 | 11 | 5506 | -95 | 0 | 3.4 | -1
17) CN(C)CCCNc1cc(O)c2ncccc2c1
  4 | 1 | 2658 | -9 | nt | 6.7 | 4
18) CN(C)S(=O)(=O)c1ccc(N2CCCC2)c(C(=O)NC2CCCCC2)c1
  6 | 1 | ? | -6 | -7 | 1.8 | -4
19) COc1ccc(OCc2nnc(SCC(=O)NNC(=O)c3ccc(C)cc3)n2C)cc1
  0 | 5 | 2086 | -22 | -8 | 3.9 | 2
20) CC(C)Oc1ccc(Cn2c(-c3ccco3)n[nH]c2=S)cc1
  8 | nt | 3239 | -9 | 1 | 9.1 | nt

One compound at a time, as listed above:
C=CC[n+]1c(-c2ccc(OC)cc2)csc1NNC(=O)Nc1ccccc1 is listed with ugtP null kill: -7; Mtb hypoxia inh growth: 11; Bead autofluor: 5506; PrP UTR inh: -95; BJeLR lethal: 0; RN4220 kill: 3.4; Mtb hypoxia inh: -1
COc1ccc(OC)c(-c2csc(NC(=O)CSc3ccc(Br)cc3)n2)c1 is listed with ugtP null kill: -10; Mtb hypoxia inh growth: 6; Bead autofluor: 1953; PrP UTR inh: -24; BJeLR lethal: -1; RN4220 kill: 1.8; Mtb hypoxia inh: 2

5 records picked at random from the list so far:
Results follow in this order: ugtP null kill | Mtb hypoxia inh growth | Bead autofluor | PrP UTR inh | BJeLR lethal | RN4220 kill | Mtb hypoxia inh
2) CCOC(=O)N1CCN(C(=O)/C(=C/c2cccs2)NC(=O)c2ccc(OC)c(OC)c2)CC1
  1 | 0 | 3038 | -3 | -3 | 0.3 | 6
16) C=CC[n+]1c(-c2ccc(OC)cc2)csc1NNC(=O)Nc1ccccc1
  -7 | 11 | 5506 | -95 | 0 | 3.4 | -1
7) COc1ccc(C(=O)NCC(c2ccco2)N2CCc3ccccc32)c(OC)c1 (centres undefined)
  4 | 9 | ? | -17 | 6 | 2.5 | 10
11) CCc1[nH]c(=O)c(C#N)c2c1CCCC2
  2 | -6 | 4360 | -30 | 1 | -2.7 | -4
1) Cc1ccc(-c2nn(-c3ccccc3)cc2C(=O)N2CCN(c3ccccn3)CC2)cc1
  -2 | 9 | 3658 | -10 | -2 | 1.8 | 16

Continuation:
Results follow in this order: ugtP null kill | Mtb hypoxia inh growth | Bead autofluor | PrP UTR inh | BJeLR lethal | RN4220 kill | Mtb hypoxia inh
21) COc1ccc(S(=O)(=O)Cc2ccc(C(=O)NCc3ccccc3)o2)cc1
  8 | 1 | 5131 | -30 | 8 | 1.2 | 4
22) CC1Cc2ccccc2N1C(=O)CSc1nnc2c(n1)[nH]c1ccc(F)cc12 (centres undefined)
  -2 | nt | 2897 | -14 | -1 | -0.4 | nt
23) COc1ccccc1C1C2=C(CC(C)(C)CC2=O)Nc2nnnn21 (centres undefined)
  -1 | -5 | 1939 | 2 | -22 | -0.7 | -16
24) COc1ccc2c(c1)CC(C)C/C2=N\NC(=O)c1ccco1 (centres undefined)
  nt | nt | 4381 | -18 | 8 | nt | nt
25) NCCCC[C@@H]1NC(=O)c2cc([N+](=O)[O-])cc(I)c2SC[C@@H](C(=O)NCC(N)=O)NC(=O)CNC1=O
  nt | nt | 2856 | -1 | -3 | nt | nt
26) CN1/C(=C/C=N/n2cnnc2)C(C)(C)c2ccccc21
  nt | nt | 9688 | -13 | -2 | nt | nt
27) CCc1ccc(C(=O)NNc2ccc(Cl)cc2)cc1
  14 | -7 | 3717 | -39 | -3 | -5.2 | -7
28) Nc1ccc2nc(CN3CCOCC3)[nH]c2c1
  -6 | 3 | 3084 | -7 | 0 | -0.8 | 1
29) COc1cc(-c2c(C#N)c(N)nc3c2c(C)nn3-c2ccc(C)c(C)c2)cc(OC)c1OC
  -12 | 2 | nt | -10 | 1 | 2.5 | -10
30) CC(=O)OC(C(=O)N1CCN(c2ccc(F)cc2)CC1)c1ccccc1 (centres undefined)
  15 | nt | 4784 | -6 | 1 | -0.2 | nt
31) CSc1nnc(NC(=O)c2cc(=O)c3cc(C)cc(C)c3o2)s1
  80 | 13 | 3472 | -9 | 1 | 79 | 13
32) CCNC(=S)Nc1ccc(OCc2nc3ccccc3s2)cc1
  12 | nt | 3627 | -52 | 9 | -2.0 | nt
33) N#Cc1ccc(C23CC4(C2)[C@H](CN(Cc2cccnc2)[C@@H]4c2ccccc2)C3c2ccccc2)cc1 (some centres undefined)
  nt | nt | 5907 | -7 | -5 | nt | nt
34) CN(C)/C=C1/C(=O)NC(=O)N(CCNc2ncc(C(F)(F)F)cc2Cl)C1=O
  2 | 1 | 4785 | -17 | -9 | 3.4 | 7
35) O=C(C1CCCCC1)N1CCN(c2nc(-c3ccc(F)cc3)cs2)CC1
  13 | 8 | 3801 | -33 | 5 | 3.3 | 9
36) CC1CCc2c(nc3ncnn3c2NCCc2ccccc2F)C1 (centres undefined)
  9 | 12 | 4368 | -46 | 4 | -2.4 | 12
37) CN(C)S(=O)(=O)c1ccc(N2CCCC2)c(C(=O)NCc2cccc(C(F)(F)F)c2)c1
  -1 | 11 | 4413 | -14 | 11 | 0.1 | 15
38) CCCc1cc(=O)[nH]c(SCC(=O)Nc2cccc(S(=O)(=O)N3CCCCC3)c2)n1
  -2 | 8 | 3917 | 2 | nt | 2.9 | 7
39) Cc1cc(O)c(-c2cc(C(=O)NCCc3ccc(S(N)(=O)=O)cc3)[nH]n2)cc1C
  1 | 11 | ? | -14 | 2 | 4.5 | 18
40) COc1cc(C(=O)NCC(=O)N/N=C\C(C)=C/c2ccccc2)cc(OC)c1OC
  nt | nt | 5578 | 10 | 0 | nt | nt
41) CC(=O)Nc1ccc(-c2nc3ccc(NC(C)=O)cc3o2)cc1
  -1 | -4 | 3825 | -27 | -4 | 0.0 | 1
42) Cn1nccc1C(=O)NC(=S)Nc1cc(Cl)cc(Cl)c1
  16 | 9 | 4602 | 2 | -6 | -2.8 | 10
43) Cc1ccc(N2CCN(C(=O)NC3CCCCC3)CC2C)cc1 (centres undefined)
  3 | -3 | 4186 | -21 | 2 | 5.9 | -3
44) CCc1cccc(CC)c1NC(=O)CON=C(C)c1cccs1
  19 | -5 | nt | nt | nt | 6.9 | 21
45) Cn1cc(-c2ccccc2C(=O)O)c(=O)c2ccccc21
  4 | 7 | 3772 | -13 | 3 | 1.8 | 17
46) CCN(CC)c1nc(N)nc(N(c2ccccc2)c2ccccc2)n1
  16 | 2 | 5201 | -10 | 5 | 4.7 | 0
47) Cc1cc(C)nc(Sc2ccc3nnc(C(F)(F)C(F)(F)C(F)(F)F)n3n2)n1
  -3 | 5 | 13096 | -2 | 10 | 3.8 | -4
48) Cc1ccc(C2CC(=O)Oc3cc(C)c(Br)c(C)c32)cc1 (centres undefined)
  77 | 4 | 3722 | -23 | nt | -5.2 | -3
49) N#Cc1ccc(CSc2nnc(-c3cccc(S(=O)(=O)N4CCCCC4)c3)o2)cc1
  -11 | nt | 4076 | -11 | -2 | -1.3 | nt
50) O=C(CSc1ncnc2c1oc1ccccc12)Nc1cccc(Cl)c1
  -32 | -2 | 21833* | -24 | -2 | 3.0 | 0
51) CCCCNC(=O)C(C#N)c1nc2ccccc2nc1N1CCN(c2ccccc2F)CC1 (centres undefined)
  -5 | nt | 3382 | -15 | -2 | 3.5 | nt
52) CC1CC(=Cc2ccc(N)cc2)C(=O)O1 (centres undefined)
  8 | 13 | 3379 | -22 | nt | 4.5 | 20
53) O=C(Nc1ccc2c(c1)CCC2)c1cnn2c1NC(c1ccco1)CC2C(F)(F)F (centres undefined)
  -4 | nt | 2175 | -13 | nt | 1.4 | nt
54) CC1CCC(NC(=O)c2cc3c(s2)CS(=O)(=O)C3)CC1 (centres undefined)
  1 | 6 | 8364 | -30 | nt | 0.0 | -1
55) CCN(CC)c1ccc(NC(=O)CCCCC(=O)Nc2ccc(N(CC)CC)cc2)cc1
  10 | 15 | 5092 | 20 | -7 | 6.3 | 16
56) CCC(C(=O)Nc1ccc(C(=O)Nc2ccccc2C(=O)O)cc1)c1ccccc1 (centres undefined)
  0 | 5 | 4241 | -12 | -2 | 4.7 | 9
57) CC(C)(C)c1ccc(C(=O)N/C(=C\c2ccco2)C(=O)O)cc1
  -1 | 5 | 4642 | 1 | 7 | 15 | 10
58) Cc1occc1C(=O)NN=C/C=C\c1ccccc1[N+](=O)[O-]
  6 | 7 | nt | nt | nt | 5.4 | 5
59) O=C(/C=C/c1ccncc1)c1cc(Cl)ccc1O
  nt | nt | 3294 | 6 | -2 | nt | nt
60) O=C(N[C@H](Cc1ccc(Cl)cc1)C(=O)O)OCC1c2ccccc2-c2ccccc21
  2 | 2 | 3935 | 7 | 3 | 26 | -3
61) Cn1nc(OCCOc2ccccc2)ccc1=O
  -5 | 12 | nt | -12 | 3 | -8.4 | 7

Along the list, as entered above:
Nos. 56 to 59 in BJeLR lethal read -2, 7, nt, -2
Nos. 56 to 59 in Bead autofluor read 4241, 4642, nt, 3294
